Six1-Eya2 inh = inhibitors of human Six1/Eya2 interaction | Q15475+O00167 | AlphaScreen GST-Six1/His-Eya2 binding, biochemical; active compounds read low; control for the full effect not named in the record | activity change, % (no concentration beside the values) | 360,000 tested, 0.56% active | AID 651725; in the data active = activity change below about -65%; inconclusive = about -30% to -65%; inactive = above about -30%; also: % is scaled to controls: 0 for no effect and ±100 for the full control effect
Target sequence (O00167 whole entry, looked up): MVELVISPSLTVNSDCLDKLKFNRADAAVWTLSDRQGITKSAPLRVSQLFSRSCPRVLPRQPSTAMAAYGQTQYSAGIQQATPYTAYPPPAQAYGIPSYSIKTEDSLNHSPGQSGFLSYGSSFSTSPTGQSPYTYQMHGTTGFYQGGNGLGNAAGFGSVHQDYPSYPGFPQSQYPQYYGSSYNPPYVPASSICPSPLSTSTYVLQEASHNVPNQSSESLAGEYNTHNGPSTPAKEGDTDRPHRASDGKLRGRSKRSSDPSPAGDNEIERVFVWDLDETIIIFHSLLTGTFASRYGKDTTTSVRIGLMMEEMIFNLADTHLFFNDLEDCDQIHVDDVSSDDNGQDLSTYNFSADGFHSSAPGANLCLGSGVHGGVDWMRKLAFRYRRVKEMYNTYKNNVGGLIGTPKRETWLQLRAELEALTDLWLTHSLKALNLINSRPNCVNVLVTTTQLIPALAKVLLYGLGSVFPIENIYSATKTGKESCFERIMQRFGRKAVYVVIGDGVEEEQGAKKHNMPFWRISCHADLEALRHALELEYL
Target sequence (Q15475 whole entry, looked up): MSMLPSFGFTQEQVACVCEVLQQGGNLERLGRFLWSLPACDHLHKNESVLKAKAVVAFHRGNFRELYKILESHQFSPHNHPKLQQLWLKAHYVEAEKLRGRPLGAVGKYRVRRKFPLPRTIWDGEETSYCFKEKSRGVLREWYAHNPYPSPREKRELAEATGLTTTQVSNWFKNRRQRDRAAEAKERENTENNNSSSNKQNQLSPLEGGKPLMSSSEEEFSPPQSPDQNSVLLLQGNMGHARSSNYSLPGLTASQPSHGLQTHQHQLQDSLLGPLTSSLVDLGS
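Compounds are tested against tagged Six1 and Eya2 proteins bridged by glutathione donor and nickel acceptor beads; after a one-hour incubation at 37 °C without light, AlphaScreen emission is recorded.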
CtBP-E1A blk = blocks the CtBP interaction with E1A | AlphaScreen GST-E1A/His-CtBP binding, 1536-well; active compounds read low; control for the full effect not named in the record | activity change, % (no concentration beside the values) | 340,000 tested, 0.49% active | AID 651724; in the data active means activity change below about -65%; inconclusive means about -30% to -65%; inactive means above about -30%; also: % is scaled to controls: 0 for no effect and ±100 for the full control effect
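Protein mix (5X: 125 nM each GST-E1A, His-CtBP) was incubated with pinned compound 2 h at 37 deg C in dark, in 50 mM Tris pH 8.0 buffer with 300 mM NaCl. Glutathione donor and nickel acceptor beads followed; AlphaScreen signal read after 1 h.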
D2 potentiator = human D2 receptor positive allosteric modulation; AID 624464; DiscoveRx D2 beta-arrestin cells, luminescence, 90 min; 100% = 57 uM dopamine signal; potentiation, % (concentration not given with the values); 360,000 tested, 0.23% active; active = potentiation of 50% or more; inconclusive = 30% to 50%; inactive = 30% or less;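 also: compound concentration not given in the record; tested on top of an EC20 dose of dopamine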
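PathHunter beta-arrestin assay in DiscoveRx D2 cells. Compounds were added with an EC20 of dopamine (50 nM final) for 90 min at 37 deg C. Luminescence was read 1 h after detection reagent, with 57 uM dopamine as the EC100 control.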
gsp agonist = activates gsp, the McCune-Albright syndrome mutation. gsp mutant cells, cAMP HTRF, 30 min; control for the full effect not named in the record. Potency, µM (series often up to 76.9 µM), for inactives: at the highest dose activation (cAMP increase), actives largely listed as activators. 340,000 tested, 0.13% active; active = well fitted activation curve with a large enough effect; inconclusive = small, poorly fitted or top-dose-only effect, or another doubt; inactive = no such curve, though single readings can be large or run the other way; cell line not stated here;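 also: phosphodiesterase inhibitor Ro 20-1724 added with compounds to block cAMP breakdown; potency is read from the fitted curve at half-maximal effect; nearly all actives have a fitted effect of over 60% in size; about a fifth of the inactives were tested at one dose only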
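Cells in DMEM/10% FBS with G418 were pretreated with compounds in DMSO plus […] (300 uM stock) for 30 min at 37C. cAMP was measured by HTRF (cAMP-d2 plus anti-cAMP antibody-K) after 30 min at room temperature.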
D2 agonist = agonists of human D2 dopamine receptor (beta-arrestin); activation, % (concentration not given with the values); AID 624465; DiscoveRx PathHunter D2 beta-arrestin, luminescence, 90 min; 100% = 57 uM dopamine signal; 360,000 tested, 0.084% active; in the data active = activation above about 40%; inconclusive = about 15% to 40%; inactive = below about 15%; also: compound concentration not given in the record; the text of the record calls up to 30% inactive
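Agonist mode: compounds alone added to overnight-plated D2 PathHunter cells for 90 min at 37 C, with 57 uM final dopamine (EC100) defining full response. Beta-arrestin recruitment detected by chemiluminescent reagent, read after 1 h at ambient temperature.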
gsp antagonist = antagonists of gsp mutant (McCune-Albright syndrome); gsp-mutant cells, cAMP HTRF, 30 min; control for the full effect not named in the record; 340,000 tested, 0.4% active; Potency, µM (titrated, usually from 76.9 µM), for inactives: top-dose activity change, negative = inhibition, usual class: inhibitors; active = falling curve of any shape with a large fitted effect; inconclusive = falling curve, mostly with a smaller effect; inactive = flat or rising curve; cell line not stated here;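 also: intracellular cAMP measured with PDE inhibitor Ro 20-1724 present during compound exposure; potency is read from the fitted curve at half-maximal effect; % is scaled to controls: 0 for no effect and ±100 for the full control effect; nearly all actives have a fitted effect of over 65% in size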
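HTRF cAMP measurement after 30 min RT detection following 30 min, 37C compound treatment alongside […] (added as 300 uM solution) in G418-selected cells seeded at 2000/well and grown 16–24 h.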
An asterisk follows results filed as active; ? = inconclusive; · = not tested or not shown; [ ] = another dose, or the depositor's remark. This is a random part of the collection; 1.4% or so of the library scored in one or more.

1	COc1ccc(S(=O)(=O)N2CCN(C(=S)NCCc3ccccc3)CC2)cc1
2	COc1ccc(NC(=O)CN2CCN(CC(=O)Nc3ccc(F)cc3F)CC2)cc1
3	COc1cc(NC(=O)CSc2nccc(C)n2)c(C)cc1[N+](=O)[O-]
4	Cc1ccc(S(=O)(=O)N(C(=O)c2ccncc2)c2ccc(OC(=O)c3ccncc3)c3ccccc23)c(C)c1
5	CCN(CC(=O)Nc1cccc(OC)c1)CC(=O)Nc1ccc(Br)c(C)c1
6	Cc1ccc(NC(=O)CC(=O)Nc2ccc(C)cc2C)c(C)c1
7	c1ccc(CNc2ccc3ccccc3n2)nc1
8	COc1ccc(F)c(-c2nc(CN3CCC(c4ccccc4)CC3)c(C)o2)c1
screen / no.	1	2	3	4	5	6	7	8
gsp antagonist	1%	2%	8%	-11%	?	5%	8%	·
gsp agonist	15%	9%	-1%	1%	1%	-25%	-10%	-5%[15.4 µM]
D2 agonist	-3.9	2.2	-1.0	?	0.8	1.6	-1.7	-5.3
D2 potentiator	-3	-1	6	90*	-9	26	-7	-19
Six1-Eya2 inh	-9	1	-11	-11	14	-28	-23	-16
CtBP-E1A blk	12	0	-18	-2	0	·	?	0

9	CCOc1ccc(C(CC(=O)O)NC(=O)C(c2ccccc2)c2ccccc2)cc1OC (stereo not given)
10	CC1CCCC(NC(=O)C2CC(=O)N(Cc3ccccc3)C2)C1C (stereo not given)
11	O=c1ccc(NS(=O)(=O)c2ccc(Cl)cc2)cn1Cc1ccc(Cl)c(Cl)c1
12	COc1cc(OC)c(N(C)S(=O)(=O)c2cccc(C(=O)NCc3cccs3)c2)cc1Cl
13	O=c1[nH]c(-c2ccccc2)c(-c2ccccc2)o1
14	CN1C(=O)/C(=C/c2cn(CC(=O)N3CCCCC3)c3ccccc23)NC1=S
15	C[C@@H](CN1C(=O)C(=O)NC[C@@H]1C)NC(=O)CC12CC3CC(CC(C3)C1)C2
16	Cc1ccc2cc(/C=N/NC(=O)[C@@H]3CCCN3)c(Cl)nc2c1
screen / no.	9	10	11	12	13	14	15	16
gsp antagonist	6%	14%	-33%	·	-14%	-21%	5%	-7%
gsp agonist	0%	-8%	-35%[inhibitor]	-9%	-13%	37%	-5%	5%[15.4 µM]
D2 agonist	-0.7	3.1	2.3	-2.4	-4.7	-1.1	-2.9	-4.4
D2 potentiator	6	-5	5	-9	-12	3	-13	-11
Six1-Eya2 inh	5	5	-2	-4	-6	7	9	-13
CtBP-E1A blk	·	6	-22	1	-15	14	0	-2

17	FC(F)(F)c1cnc(Oc2ccc(-c3nnco3)cc2)c(Cl)c1
18	CCCCNC(=S)N(CCCO)Cc1cc2cc3c(cc2[nH]c1=O)OCO3
19	COc1ccc(C2(c3ccc(OC)cc3)NC(=O)N(CC(=O)NC3(C#N)CCCC3)C2=O)cc1
20	COc1ccc(CC(=O)N/N=C/c2cccn2-c2ccc([N+](=O)[O-])cc2)cc1OC
21	O=C(O)c1cccnc1SCC(=O)N1CCCc2ccccc21
22	COc1ccc(-c2csc(NS(=O)(=O)c3ccc([N+](=O)[O-])cc3)n2)cc1
23	COc1ccc(Cc2nc3ccc(C(=O)NCCn4ccnc4C)cc3o2)cc1OC
24	c1ccc(CCn2nnnc2CN2CCCc3ccccc32)cc1
screen / no.	17	18	19	20	21	22	23	24
gsp antagonist	-22%	·	0%	-13%	-1%	-9%	9%	-4%
gsp agonist	-2%	-60%[inhibitor]	6%	2%	-2%	1%[15.4 µM]	2%	?
D2 agonist	-2.0	-3.4	-4.5	-0.5	-5.8	0.2	-6.5	1.2
D2 potentiator	-11	-13	-6	-7	1	3	-8	1
Six1-Eya2 inh	-1	14	3	-15	-11	-19	-2	-5
CtBP-E1A blk	8	-12	5	-1	0	-5	5	-12

25	Cc1ccc2nc(NC(=O)CSc3nc4ccccc4o3)sc2c1
26	CCOC(=O)Nc1sc(NS(=O)(=O)c2ccc(C)cc2)nc1C
27	Cc1csc2ncnc(N3CCN(S(=O)(=O)c4cccc(C(F)(F)F)c4)CC3)c12
28	COc1nc(N/N=C/c2ccc(-c3ccccc3[N+](=O)[O-])o2)nc(N2CCOCC2)n1
29	COC(=O)c1sc(NC(=O)CSc2nnnn2-c2ccc(C)cc2C)nc1C
30	Nn1c(SCC(=O)Nc2ccc3c(c2)OCO3)nnc1-c1ccc(Cl)cc1
31	O=C(c1ccco1)N1CCN(S(=O)(=O)c2cccc(Cl)c2)CC1
32	Cc1nn(-c2ccccc2)c(OC(=O)c2cccs2)c1S(=O)(=O)c1ccc([N+](=O)[O-])cc1
screen / no.	25	26	27	28	29	30	31	32
gsp antagonist	8%	1%	?	?	8%	10%	3%	-11%
gsp agonist	-55%[inhibitor]	1%	-55%[inhibitor]	?	2%	6%	-4%[15.4 µM]	-6%
D2 agonist	2.7	6.5	-4.9	2.0	-2.6	1.0	1.9	2.0
D2 potentiator	5	?	6	-7	7	2	-4	0
Six1-Eya2 inh	3	-1	-1	-7	7	2	14	-15
CtBP-E1A blk	0	-13	0	-7	-2	4	-1	-13

33	Cn1c(NC(=O)C2CCCC2)cc(=O)n(C)c1=O
34	Cc1ccc(NC(=O)CSc2nnnn2-c2cccnc2)c(C)c1
35	O=C(CSc1nnc(Cc2ccccc2)o1)N1CCc2ccccc21
36	NC(=O)c1c(NC(=O)c2ccncc2)sc2c1CCCCCC2
37	O=C(CN1CCN(c2ccc(F)cc2)CC1)Nc1ccc(-n2cnnn2)cc1
38	c1cc(CNCC2CCCO2)ccn1 (stereo not given)
39	NS(=O)(=O)c1ccc(CCNC(=O)c2cc(-c3ccccn3)nc3ccc(Br)cc23)cc1
40	CC(C)(Cc1ccc(O)cc1)NC(=O)CC(=O)N/N=C/c1ccc(Cl)cc1
screen / no.	33	34	35	36	37	38	39	40
gsp antagonist	3%	10%	11%	-3%	-1%	15%	-8%	12%
gsp agonist	-8%	?	21%	-119%[inhibitor]	-11%	-29%	0%[15.4 µM]	-1%
D2 agonist	-1.9	-0.8	0.0	?	0.2	-3.1	6.2	-3.2
D2 potentiator	-4	-8	-29	0	-3	-8	2	-22
Six1-Eya2 inh	-8	11	24	-5	-1	3	1	-1
CtBP-E1A blk	2	3	3	-4	10	3	-25	8

Taken from above.
entry 39 @ D2 potentiator: 2
entry 38 @ Six1-Eya2 inh: 3
entry 33 @ D2 potentiator: -4

The listing picks up, starting 4 compounds before the break.
37	O=C(CN1CCN(c2ccc(F)cc2)CC1)Nc1ccc(-n2cnnn2)cc1
38	c1cc(CNCC2CCCO2)ccn1 (stereo not given)
39	NS(=O)(=O)c1ccc(CCNC(=O)c2cc(-c3ccccn3)nc3ccc(Br)cc23)cc1
40	CC(C)(Cc1ccc(O)cc1)NC(=O)CC(=O)N/N=C/c1ccc(Cl)cc1
41	Cc1ccc(C)c(N(Cc2cc3ccc(C)cc3[nH]c2=O)C(=O)c2ccco2)c1
42	CC(=O)c1cnc2nc(SCc3ccccc3C)nn2c1C
43	CCC1(CC)NC(=O)N(CC(=O)OC(C)C(=O)Nc2ccccc2OC)C1=O (stereo not given)
44	CC(C)(C)c1ccc(NC(=O)C(=O)C2C(=O)Nc3ccccc32)cc1 (stereo not given)
45	C[C@@]12CCC=C[C@H]1[C@H](c1ccc(C(F)(F)F)cc1)N(Cc1ccccc1)C2=O
46	O=C(NCc1ccco1)c1cccnc1Cl
47	OC[C@@H]1CN(Cc2ccc3c(c2)OCO3)C[C@H](n2cnc3c(NCc4ccc(F)cc4)ncnc32)O1
48	Cc1cc(C)cc(NC(=O)c2ccc(CNc3c(N4CCOCC4)c(=O)c3=O)cc2)c1
screen / no.	37	38	39	40	41	42	43	44	45	46	47	48
gsp antagonist	-1%	15%	-8%	12%	-12%	-2%	4%	9%	-2%	4%	·	-1%
gsp agonist	-11%	-29%	0%[15.4 µM]	-1%	-12%	0%	1%	-50%[inhibitor]	·	26%[15.4 µM]	·	-21%
D2 agonist	0.2	-3.1	6.2	-3.2	-3.8	-0.4	-2.4	-2.8	1.7	-2.2	-3.6	-1.9
D2 potentiator	-3	-8	2	-22	-10	-2	-16	-8	-10	-6	-8	-6
Six1-Eya2 inh	-1	3	1	-1	-6	4	6	0	-2	4	-8	-6
CtBP-E1A blk	10	3	-25	8	·	1	1	·	-12	-2	-4	-21

Fetched by structure from the list above, two records:
48	Cc1cc(C)cc(NC(=O)c2ccc(CNc3c(N4CCOCC4)c(=O)c3=O)cc2)c1
47	OC[C@@H]1CN(Cc2ccc3c(c2)OCO3)C[C@H](n2cnc3c(NCc4ccc(F)cc4)ncnc32)O1
screen / no.	48	47
gsp antagonist	-1%	·
gsp agonist	-21%	·
D2 agonist	-1.9	-3.6
D2 potentiator	-6	-8
Six1-Eya2 inh	-6	-8
CtBP-E1A blk	-21	-4

Next section
49	Cc1cc(/C=N/Nc2ccc([N+](=O)[O-])cn2)c(C)n1-c1cccc(C(=O)O)c1
50	COC(=O)c1cc(C#N)c(=O)[nH]c1C
51	COc1ccc(CCN=C2SCC(=O)N2Cc2ccccc2)cc1OC
52	O=C1OC(Nc2ccccn2)c2ccccc21 (stereo not given)
53	COc1ccc(N(CC(=O)Nc2cc(C)ccc2C)S(=O)(=O)c2c(C)noc2C)cc1
54	Cc1cnc(C(=O)NNC(=O)c2ccc(Br)cc2)cn1
55	O=c1[nH]cc(F)c(=O)[nH]1
56	CCOC(=O)/C=C/C(=O)OCC(=O)Nc1c(Cl)cccc1Cl
screen / no.	49	50	51	52	53	54	55	56
gsp antagonist	-28%	-5%	·	0%	-7%	1%	-3%	2%
gsp agonist	-16%	0%	-27%[15.4 µM]	27%	3%	-15%[15.4 µM]	·	-44%[inhibitor]
D2 agonist	-2.3	-22	-3.6	-1.1	-0.6	0.8	-4.2	1.0
D2 potentiator	-10	-4	-27	1	-13	11	5	-7
Six1-Eya2 inh	-25	3	1	2	-4	-25	7	8
CtBP-E1A blk	?	7	24	7	3	-18	-6	-2

57	O=C(NNC(=S)Nc1ccc(Cl)cc1Cl)c1ccc(N2CCOCC2)c([N+](=O)[O-])c1
58	CCC1(c2ccc(Cl)cc2)NC(=O)N(Cc2ccc(C(=O)OC)cc2)C1=O (stereo not given)
59	COC(=O)N1C(=O)[C@@](c2ccccc2)(C2CCCCC2)N1C(=O)OC
60	COc1ccc(NC(=O)CC2Sc3ncnn3C2=O)cc1 (stereo not given)
screen / no.	57	58	59	60
gsp antagonist	-28%	9%	-5%	-5%
gsp agonist	-29%	-5%[15.4 µM]	·	7%
D2 agonist	-2.6	0.8	-8.8	7.0
D2 potentiator	-26	7	-5	-1
Six1-Eya2 inh	-18	-6	0	-10
CtBP-E1A blk	-1	8	0	3

Assay outcomes: PubChem BioAssay, National Center for Advancing Translational Sciences (NCATS)
